# Screening data from PubChem BioAssay.
# Calb FLC = affects C. albicans growth with fluconazole. C. albicans CaCi-2 (fluconazole-resistant clinical isolate) + fluconazole, Alamar Blue growth, 48 h. growth inhibition, % (concentration not given with the values). actives 0.57% (n = 300,000). AID 1979;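 active = most replicates above 75%; inconclusive = exactly half above 75%; inactive = most below 75%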;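 also: all wells also contain fluconazole at 8 µg/ml as a sub-toxic cotreatment; 0% = median of DMSO wells and 100% = median of geldanamycin control wells; wells of about 8 µL received 7.5 nL stock; the first replicate is given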
# Vif A3G = HIV-1 Vif–A3G interaction blockers – biochemical, TR-FRET, GST-Vif 1-94, biotin-A3G peptide, dose response retest, primary screen (AID 1117319); TR-FRET GST-Vif / biotin-A3G peptide binding; higher % means a stronger effect; test concentration not given here; strong numbers were not always called active; actives 0.57% (n = 260,000); one-dose inhibition, %; IC50 in µM for titrated hits;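 active = above the screen mean plus three standard deviations and confirmed in dose response; inconclusive = results disagree or hit not tested in dose response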;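 also: Vif residues 1-94 fused to GST binding biotinylated APOBEC3G peptide 110-148; 0% = full assay without inhibitor and 100% = GST in place of GST-Vif; retest series ran down from 100 µM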
# T cruzi repl = blocks replication of Trypanosoma cruzi. T. cruzi beta-gal in NIH3T3, luminescence, 90 h. actives 1.4% (n = 300,000). AID 1885. inhibition, % (test concentration not listed);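 active = mean inhibition across valid replicates above about 55%, limit read from the data; inconclusive = mean below that limit but half or more replicates reach it; inactive = mean below it, under half of replicates reach it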;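 also: signal also drops with host cell toxicity which is not excluded here; 0% = plate median of DMSO wells and 100% = zero luminescence signal; higher percent means less beta-gal luminescence so fewer parasites; stock transfer was 50 nL into about 50 µL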
# Beta cell apopt = blocks beta cell apoptosis | INS-1E cytokine-induced death, ATP luminescence, 48 h; percent of positive-control rescue, neutral wells zero | actives 0.8% (n = 300,000) | protection from apoptosis, % (concentration not given with the values);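 active = all replicates at 75% or more, or half of them and the mean; inconclusive = half reach 75% but not the mean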;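 also: 0% = cytokine-treated negative control wells and 100% = positive control rescue; higher means more ATP so stronger rescue from cytokine killing; wells of about 40 µL received 100 nL stock; the first replicate is given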
# Ecoli rRNA inh = inhibitors of bacterial rRNA selective over humanized ribosomes; actives 1.6% (n = 350,000); E. coli WT GFP vs humanized-ribosome RFP mutants, fluorescence, 24 h; stronger effect = lower value; DMSO median 0, no signal -100; GFP signal change (wild-type ribosome), % (no concentration beside the values);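 active = significant combined selectivity score with lowered wild-type GFP, culture density cut under 30%, mutant RFP and density less affected; inactive = any of these conditions unmet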; also: one replicate is shown; some compounds called inactive have numbers as strong as hits
# RanGTP-Imp inh = disruptors of Ran-importin-beta complex formation – biochemical, FRET, CFP-Ran, YFP-importin-beta, homogeneous, primary screen. cell-free CFP-Ran/YFP-importin-beta FRET ratio. inhibition, % (no concentration beside the values). actives 1.1% (n = 300,000). AID 2216;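 active = most replicates above 15%; inconclusive = exactly half above 15%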;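 also: 0% = DMSO wells and 100% = Ran loaded with GDP instead of GTP; wells of about 40 µL received 100 nL stock; the first replicate is given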
# Bfl-1 A1 inh = inhibitors of the anti-apoptotic protein A1, read as caspase activation | MEF A1-2A-BIM cells, Caspase-Glo 3/7 luminescence, 3 h; percent of clofoctol response, vehicle zero | caspase activation, % (test concentration not listed) | actives 0.066% (n = 330,000);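 active = over half of replicate activation scores above 10%, or exactly half above 10 with the replicate mean above 10; inconclusive = replicate mean below 10 yet half the replicates above 10; inactive = over half of replicates below 10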;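 also: wells of about 30 µL received 50 nL stock; many hits fall short of the cut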
# AF4-AF9 inh = MLL-AF4/AF9 protein interaction inhibition | P42568 | AlphaScreen, biotin-AF4 peptide binding to FLAG-AF9 | inhibition, % at 10 µM | actives 0.47% (n = 350,000) | AID 651704;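 active = every replicate reaching a set inhibition limit, whatever the replicate mean, cut at about 25% in these data; inconclusive = mean inhibition reaches that limit but some replicates miss it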;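 also: 0% = plate neutral control median and 100% = total signal loss; the record names both 10 and 1 µM as test concentration; the first replicate is given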
# Target sequence (P42568 whole entry, looked up): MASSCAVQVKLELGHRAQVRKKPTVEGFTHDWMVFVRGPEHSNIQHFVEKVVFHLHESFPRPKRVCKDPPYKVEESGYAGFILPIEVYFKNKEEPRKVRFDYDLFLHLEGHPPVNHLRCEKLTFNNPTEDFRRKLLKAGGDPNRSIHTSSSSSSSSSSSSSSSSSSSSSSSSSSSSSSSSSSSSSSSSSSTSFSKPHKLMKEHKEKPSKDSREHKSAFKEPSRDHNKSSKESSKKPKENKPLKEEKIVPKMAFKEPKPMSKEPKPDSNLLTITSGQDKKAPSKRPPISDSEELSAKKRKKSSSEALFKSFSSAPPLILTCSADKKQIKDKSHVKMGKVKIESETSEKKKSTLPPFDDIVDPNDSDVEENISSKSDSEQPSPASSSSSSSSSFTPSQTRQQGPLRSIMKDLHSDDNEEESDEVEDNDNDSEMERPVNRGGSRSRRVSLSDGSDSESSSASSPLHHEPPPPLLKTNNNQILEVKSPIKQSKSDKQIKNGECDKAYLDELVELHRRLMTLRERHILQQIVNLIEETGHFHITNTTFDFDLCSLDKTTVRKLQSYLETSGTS
# Ecoli rRNA inh OD600 = further read-out of Ecoli rRNA inh, marked with its call; OD600 change, %; measured here: OD600 growth;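 optical density of the mix in the first replicate; 0 = DMSO median and -100 = no signal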
# Ecoli rRNA inh RFP = second read-out of Ecoli rRNA inh, no call of its own (marks repeat the call); RFP signal change, %; measured here: RFP humanized mutant strains;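 first replicate; 0 = DMSO median and -100 = no signal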
# Numbers without * were called inactive; ? = inconclusive; . = not tested or not shown; & = joins results of further samples.
SMILES,Calb FLC,Vif A3G,T cruzi repl,Beta cell apopt,Ecoli rRNA inh,Ecoli rRNA inh OD600,Ecoli rRNA inh RFP,RanGTP-Imp inh,Bfl-1 A1 inh,AF4-AF9 inh
O=c1cc(C(F)(F)F)nc(-c2ccccc2OC(F)(F)F)[nH]1,4,-13%,-7,2,7,4,0.4,5.6,0.1,0.4
COc1ccccc1Nc1cc(C(=O)NCCCN2CCOCC2)c2ccccc2n1,1,-2%,-8,1,1,6,-2.4,4.1,-1.3,8.3
COc1ccc(OC)c(NC(=O)C(C)SCc2nc3sc(C)c(C)c3c(=O)[nH]2)c1 (stereo unspecified),.,.,.,-1,-1,-2,-1.3,.,-0.6,3.7
COC(=O)NCC(C)OC(=O)Nc1ccc(Cl)cc1 (stereo unspecified),-13,.,0,.,-18,-17,-3.2,-0.6,-2.4,-1.1
Cc1cc(S(=O)(=O)Nc2ccccc2C)ccc1F,5,33%,-4,-6,.,.,.,-1.4,0.8,.
COc1ccc(CNC(=O)CCS(=O)(=O)c2ccc(Br)cc2)cc1,0,?,-7,-4,-4,-4,4.5,-3.6,-1.4,-3.4
FC(F)(F)c1nnc2c3ccccc3c(Cl)nn12,3,.,-12,-4,3,3,-1.9,5.9,0.8,-3.0
COc1ccc(NC(=O)Cn2cnc3sc(C)c(S(=O)(=O)N4CCN(C)CC4)c3c2=O)cc1OC,-8,-8%,-4,.,20,16,1.5,-0.4,1.8,-2.0
C=CCn1c(SC(C)C#N)nc2sc(CC)cc2c1=O (stereo unspecified),3,-1%,4,2,-18,-14,-1.7,-2.8,0.0,0.3
CCCOc1ccc(-c2cc(C(F)(F)F)c(C#N)c(SCC(=O)O)n2)cc1,39,-5%,3,3,-49,-74,-19,-2.3,-0.1,-11
Cc1cccc(C)c1NC(=O)CN1CCN(CC(=O)NCC2(N3CCCCC3)CCCCC2)CC1,.,.,.,0,10,14,0.6,.,-0.8,0.4
O=C1CCNCCN1[C@H](CO)c1ccccc1,-14,.,-24,-7,18,14,8.0,?,2.8,-2.1
C[C@H](c1ccccc1)n1nnc(COCc2ccccc2)c1C#CCOCc1ccccc1,-9,.,8,-9,-19,-26,-9.4,1.7,0.8,-2.2
CC(C)C[C@H](NC(=O)c1nc[nH]c1C(=O)NCC(=O)OC(C)(C)C)C(=O)OCc1ccccc1,-10,3%,0,-2,3,-7,3.0,-3.4,-0.2,.
O=c1c2ccccc2oc2ccc(-c3ccc4[nH]ccc4c3)cc12,-4,.,5,3,.,.,.,6.5,-4.3,.
CCN1CCC2(CC1)Oc1c(OC)cccc1C1CC(c3cccnc3)=NN12 (stereo unspecified),36,22%,-8,-12,5,-2,-0.9,-1.5,0.1,1.0
Cc1ccc(CNc2ccc(Cl)cc2[N+](=O)[O-])cc1,-3,32%,2,-3,.,.,.,-6.4,0.7,.
COc1ccc(OC)c(C(C(=O)NCc2ccco2)N(C(=O)Cn2nnc3ccccc32)C2CC2)c1 (stereo unspecified),-12,6%&-12%,-1,.,.,.,.,3.1,0.4,.
Cc1ccc(O)c(C(=O)c2cc(C#N)c(=O)n(C(C)c3ccccc3)c2)c1 (stereo unspecified),-3,.,-15,0,-25,-24,0.9,2.0,0.1,4.3
COc1ccccc1C(=O)NC(=S)Nc1ccc(S(=O)(=O)N2CCN(C)CC2)cc1,-6,11%,9,4,-24,-14,14,-1.4,0.6,8.1
Oc1ccc(/C=N/Nc2cc(N3CCCC3)nc(N3CCCC3)n2)cc1,-4,-4%,53,5,.,.,.,86*,-0.2,.
Nn1c(=S)[nH]c2sc3c(c2c1=O)CCCC3,26,.,8,-5,-21*,-12*,-1.4*,-1.0,?,-3.5
S=c1nc(C2CCCCC2)[nH][nH]1,11,2%,6,.,.,.,.,3.0,0.2,.
COc1cc(NC(=O)CSc2nc3ccccc3cc2Cc2ccccc2)cc(OC)c1,-5,-31%,25,5,.,.,.,1.7,0.3,.
CCCCOC(=O)Sc1nc2ccccc2o1,4,-6%,18,2,.,.,.,-2.7,0.0,.
Oc1ccccc1/C=N/Nc1cccc2cccnc12,-19,?,10,-14,.,.,.,-1.0,-13,.
COC(=O)[C@H](Cc1ccccc1)N(C)S(=O)(=O)c1cccc(S(=O)(=O)N(C)[C@@H](Cc2ccccc2)C(=O)OC)c1,1,.,21,2,-2,2,-2.7,5.4,1.2,-4.7
CC(=O)NCCc1nc2ccccc2n1CCOc1ccccc1,-1,11%,-19,1,0,-11,0.5,-3.4,0.0,-0.9
O=S1(=O)CC/C(=N/Nc2ccc(C(F)(F)F)cn2)c2cc(F)ccc21,9,2%,10,-2,-3,6,-0.8,2.6,-0.1,-1.5
COc1ccc(C(=O)NCC2CCCCC2)cc1S(=O)(=O)N1CCCC1,.,23%,.,0,3,8,-10,.,0.1,1.6
CNC(=S)NNC(=O)c1cccn(Cc2ccc(Cl)c(Cl)c2)c1=O,-15,17%,-5,-2,.,.,.,-1.3,-0.2,.
CC(=O)Nc1ccc(NC(=O)C(C)OC(=O)c2ccccc2Sc2ccccc2C#N)cc1 (stereo unspecified),-3,.,-19,-4,-8,-14,-4.9,-1.1,1.4,96*
O=[N+]([O-])c1ccc(-c2c[nH]c(=S)[nH]2)cc1,-20,>100µM*,-9,-1,16,-1,-3.0,-2.7,0.0,-6.0
O=C(NC(NC(=O)c1ccccc1)C(=O)c1ccccc1)c1ccccc1,-17,5%,8,-3,.,.,.,-2.1,0.3,.
CCOC(=O)c1ccccc1NC(=O)c1cn(-c2ccc(OC)cc2)c(=O)c2ccccc12,-6,11%,37,2,.,.,.,8.8,-0.5,.
CC1(C)Cc2c(ccc3ccccc23)-c2nnc(-c3cccnc3)n21,8,-1%,11,-7,-16,-11,-0.6,-1.4,0.1,.
Cc1ccc(N(Cc2ccccc2)C(=O)c2ccc(F)c(S(=O)(=O)N3CCOCC3)c2)cc1,3,.,38,4,2,-32,-0.5,-1.4,-0.4,-1.0
C=CCNc1nc2ccccc2nc1NS(=O)(=O)c1ccc(Br)cc1,18,-13%,-4,23,-27,-40,-13,0.1,0.5,-0.7
COc1ccccc1/C=N/NC(=O)CC(=O)NCCc1ccccc1,0,.,-17,.,6,0,-0.3,4.6,-0.2,0.3
COc1ccc(Br)cc1CNC(=O)CCN1C(=O)COc2ccccc21,2,-8%,-8,-7,9,14,-5.8,-3.3,1.3,-9.5
CS(=O)(=O)N1CCCC(C(=O)N2CCc3ccccc3C2)C1 (stereo unspecified),2,2%,4,0,.,.,.,?,-0.1,.
N#CC(c1ccc(F)cc1)c1ccc(C(=O)c2ccc(F)cc2)cc1 (stereo unspecified),25,-3%,8,3,.,.,.,-1.2,-0.4,.
O=C(NCc1ccco1)C1CC(c2ccccc2O)=NO1 (stereo unspecified),-5,-5%,-7,-1,11,24,2.7,-1.6,-0.9,-2.7
COc1ccc(S(=O)(=O)NC2CC3CCC2C3)cc1 (stereo unspecified),6,.,-3,-6,4,0,-5.8,2.6,0.8,-19
COc1cccc(NC(=O)N2C3CCCC2CC(NC(=O)C2CC2)C3)c1 (stereo unspecified),-10,.,2,0,14,15,5.1,0.8,0.2,0.4
COc1ccc(-c2csc(N3N=C(C)C(C)C3=O)n2)cc1 (stereo unspecified),2,0%,0,9,-46,-49,-13,4.2,-0.2,-0.3
CSc1cccc(-n2c(C)cc(C(N)=O)c2C)c1,5,26%,-8,-7,.,.,.,-2.6,-0.2,.
COc1ccc([C@H]2CC(=O)C=C(c3ccc4c(c3)sc3ccccc34)C2)cc1,.,.,.,-5,7,8,4.7,.,-0.6,0.8
Cc1ccc2c(c1)c(N=Nc1ccc([N+](=O)[O-])cc1)c(O)n2C,-15,-2%,-2,-3,12,10,-0.4,2.3,-0.4,1.0
COC(=O)c1cc2c(=O)n3ccccc3nc2n(Cc2cccnc2)c1=N,17,.,-13,0,.,.,.,-0.3,-1.0,.
CCC(CC)C(=O)Nc1ccncc1,12,18%,-24,.,.,.,.,-2.7,0.7,.
COc1ccc(-n2c(C)cc(SC)c(C(C)=O)c2=S)cc1,-32,3%,-4,.,.,.,.,3.3,0.3,.
O=C(O)CCCN1C(=O)c2cccc3cccc(c23)C1=O,6,?,-11,3,-18,-27,-5.8,-3.2,-0.7,2.8
O=C1NC(=Nc2ccccc2)c2c1cccc2[N+](=O)[O-],2,30%,2,-3,.,.,.,-6.9,-0.4,.
O=C(CCCOc1ccc(Cl)cc1Cl)N/N=C\C1CCCCC1,-22,1%,9,-4,-4,-1,3.0,0.0,-0.3,1.1
CC(C)(C)C(=O)NC1=NCCS1,-6,0%,.,-2,.,.,.,-3.3,-0.1,.
Cc1ccc(-n2c(C(C)C)nc3oc4ccccc4c(=O)c3c2=O)cc1,3,2%,5,3,-32*,-9.4*,-4.3*,-0.1,0.0,-2.3
CC(=O)c1ccc(N2Cc3ccccc3C3(CCOCC3)C2=N)cc1,-11,4%,-6,-17,5,12,-1.5,-7.2,0.5,-3.9
Cc1c(C(=O)NCc2ccccc2CN2CCCC2)oc2ccc(F)cc12,.,1%,.,-5,.,.,.,.,-0.2,1.3
CCN1CC(CN(C)Cc2nc(Cc3ccccc3)no2)CC1=O (stereo unspecified),-27,?,-4,-1,15,10,4.2,0.3,0.1,-1.6

# Following part:
SMILES,Calb FLC,Vif A3G,T cruzi repl,Beta cell apopt,Ecoli rRNA inh,Ecoli rRNA inh OD600,Ecoli rRNA inh RFP,RanGTP-Imp inh,Bfl-1 A1 inh,AF4-AF9 inh
Cc1nn(-c2ccccc2)c2c1C1(C(=O)Nc3ccccc31)N1C(=N2)Sc2ccccc21 (stereo unspecified),5,-1%,47,8,.,.,.,1.7,0.2,.
CNC(=O)/C(=C\C=C\c1ccccc1)NC(=O)c1ccc([N+](=O)[O-])cc1,-5,25%,-8,1,17,7,-10,1.0,0.5,6.9
Cc1onc(-c2c(F)cccc2Cl)c1C(=O)NCc1ccco1,-3,0%,-4,-5,.,.,.,1.0,0.6,.
COc1ccc(S(=O)(=O)Nc2ccc(S(=O)(=O)N3CCCCC3)cc2)cc1,-1,1%,12,0,.,.,.,3.6,-0.1,.
CCN(CC)C(=O)Cn1cc(S(=O)(=O)CC(=O)Nc2ccccc2F)c2ccccc21,14,-9%,14,0,4,11,-2.1,4.8,2.5,0.4
Cc1ccc(S(=O)(=O)N2CCN(c3ccccc3)CC2)cc1C,-1,0%,0,-8,-16,-15,-8.5,-5.8,-0.1,0.6
CCOc1ccc(CN2CCNC(=O)C2CC(=O)NC2CCOCC2)cc1 (stereo unspecified),-9,.,-2,-6,10,9,1.6,2.6,-0.2,0.1
C=CC1CN(C(=O)OCC(Cl)(Cl)Cl)C2CC3c4ccc(OC)cc4NC3C3CC1C2CO3 (stereo unspecified),-6,.,17,5,.,.,.,-1.3,0.1,.

# The list is partial (hit frequency here may not be typical).
